Screens as filed in PubChem.
Methyltransferases = Primary Screen for Target Class Profiling of Small Molecule Inhibitors of Methyltransferases | purified enzyme, MTase-Glo SAH luminescence; hits give low values | calls only at 40 µM | hit rate 3.9% among 25,000 | AID 1745853, 2022; active = -50% or lower on at least one of six enzymes; inconclusive = the cases between; inactive = as a rule above -30% on all six;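 also: enzymes were COMT GAMT GNMT HNMT NNMT and PNMT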
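Each enzyme was reacted with SAM and its substrate, with compounds tested once at 40 uM; SAH formed was read by MTase-Glo luminescence.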
Calls only; i = inactive; u = inconclusive; + = active, no number. % is scaled to controls: 0 for no effect and ±100 for the full control effect.

The first two records, ahead of the listing:
SMILES | Methyltransferases
CC1CCCCC1NC(=O)C1(C)Cn2c(nc3ccccc32)C(=O)N1Cc1cccs1 (stereo unspecified) | i
O=c1[nH]nc(OCCCc2ccc(Cl)cc2)c(NCc2cccnc2)c1Br | u

Results, previewed entries included:
SMILES | Methyltransferases
CC1CCCCC1NC(=O)C1(C)Cn2c(nc3ccccc32)C(=O)N1Cc1cccs1 (stereo unspecified) | i
O=c1[nH]nc(OCCCc2ccc(Cl)cc2)c(NCc2cccnc2)c1Br | u
CCOC(=O)c1cc2n(n1)CC(C)(C(=O)NC1CCCC1)N(c1ccc(F)cc1C)C2=O (stereo unspecified) | i
CC(C)OCCCNC(=O)C1c2c(n(C)c3ccccc23)SCC(=O)N1c1cccc(Cl)c1 (stereo unspecified) | i
COC(=O)CC1(O)C(=O)Nc2ccccc21 (stereo unspecified) | i
CN(C)C[C@@H]1CN(C2CCOCC2)C[C@H]1NC(=O)C1CC=CCC1 (stereo partly specified) | i
CCc1ccc(NC(=O)CN(C)S(=O)(=O)c2ccc3[nH]c4c(c3c2)CCCC4)cc1 | i
CSc1ccc(CCN2C(=O)c3cc4ccccc4n3CC2(C)C(=O)NC2CCCC2)cc1 (stereo unspecified) | i
CC(=O)Nc1ccc(C2(C(=O)NCc3ccc(F)cc3)CCC2)cc1 | i
COC(=O)c1ncn2c1C(=O)N(Cc1cccc(OC)c1)C(C)(C(=O)NCc1ccccc1)C2 (stereo unspecified) | i
COc1ccc(C(=O)Nc2sc3c(c2C(N)=O)CCCC3)cc1OC | u
COc1ccccc1CNC(=O)C1(C)Cn2nc(-c3ccccc3)cc2C(=O)N1CCc1ccc(Cl)cc1 (stereo unspecified) | i
NC1CCc2n[nH]c(=O)n2CC1 (stereo unspecified) | i
CNC(=O)N1CCC(C2CCN(C(=O)c3cccs3)C2)CC1 (stereo unspecified) | i
COc1ccc(C(=O)N2CCCC3(COc4ccccc4C(=O)N3)C2)cc1 (stereo unspecified) | i
CC1=CC(=O)[C@@]2(C(C)C)C[C@@H]12 | +
CC(C)CCn1c(=O)c2ccc(C(=O)NC(C)C)cc2n2c(=O)n(CC(=O)NC(C)(C)C)nc12 | i
CC(C)C1c2cccn2CCN1C(=O)Nc1ccc(F)cc1 (stereo unspecified) | i
CCCN1C(=O)c2cc(C(=O)NCc3ccc(N(C)C)cc3)nn2CC1(C)C(=O)NC1CCCC1 (stereo unspecified) | i
Cc1ccc(N2C(=O)c3cc4sccc4n3CC2(C)C(=O)NC2CCCCC2C)c(C)c1 (stereo unspecified) | i
COc1cccc(CNS(=O)(=O)c2ccc3[nH]c(=O)[nH]c3c2)c1 | i
COCC(=O)N[C@H]1CC[C@]2(C)CC[C@@H](C(C)C(=O)NC3CC3)[C@H](O)[C@H]2[C@@H]1C (stereo partly specified) | i
CC(=O)Nc1c2n(c3ccc(F)cc13)CC(C)(C(=O)NC1CCCCC1)N(CCC(C)C)C2=O (stereo unspecified) | i
COCCN(C)C[C@@H]1CN(C(=O)c2ccc(Cl)s2)C[C@@H]1CO | i
CC(C)CCNC(=O)C1(C)Cn2c(c(-n3cccc3)c3ccccc32)C(=O)N1CCc1cccs1 (stereo unspecified) | i
CC(C)(CC(=O)O)CC(=O)N1CCN2C(=O)N(CCc3cccs3)C(=O)[C@H]2C1 | i
c1ccc(-c2nnn3c2nc(N2CCCCC2)c2ccccc23)cc1 | i
O=C(O[C@H]1[C@H](Oc2ccc(O)cc2CO)O[C@H](CO)[C@@H](O)[C@@H]1O)c1ccccc1 | i
COc1ccc(Cl)cc1[C@@]1(F)C(=O)Nc2cc(C(F)(F)F)ccc21 | i
CC1CCCC(NC(=O)C2(C)Cn3c(cc4occc43)C(=O)N2Cc2ccco2)C1C (stereo unspecified) | u
COc1cc2c(NC(C)=O)c3n(c2cc1OC)CC(C)(C(=O)NC1CCCCCC1)N(Cc1ccccc1)C3=O (stereo unspecified) | i
O=C(Cn1nc2n(Cc3ccccc3)c(=O)c3ccccc3n2c1=O)NCc1ccccc1 | i
CC(C)=C[C@@H]1[C@H](CO[C@@H]2O[C@H](CO)[C@@H](O)[C@H](O)[C@H]2O)C1(C)C | i
COc1ccc(CNC(=O)CN(C)S(=O)(=O)c2ccc3[nH]c4c(c3c2)CCCC4)cc1 | i
C=CCn1c(=O)c2ccc(C(=O)NC(C)C)cc2n2c(=O)n(CC(=O)NC3CCCCC3)nc12 | i
COC(=O)c1ncn2c1C(=O)N(c1ccc3c(c1)OCCO3)C(C)(C(=O)NCCCOC(C)C)C2 (stereo unspecified) | i

3 entries picked at random from those above:
SMILES | Methyltransferases
c1ccc(-c2nnn3c2nc(N2CCCCC2)c2ccccc23)cc1 | i
COC(=O)c1ncn2c1C(=O)N(c1ccc3c(c1)OCCO3)C(C)(C(=O)NCCCOC(C)C)C2 (stereo unspecified) | i
CC(C)(CC(=O)O)CC(=O)N1CCN2C(=O)N(CCc3cccs3)C(=O)[C@H]2C1 | i

The results go on:
SMILES | Methyltransferases
CC1(C(=O)NC2CCCCC2)Cn2c(nc3ccccc32)C(=O)N1Cc1cccnc1 (stereo unspecified) | i
C=C1CC2C3(C)C(O)CC(=O)C(C)(C)C3C(O)C(OC(C)=O)C2(C)C2C(=O)OC(C)(C(=O)OC)C(=O)C12C (stereo unspecified) | i
CCOc1ccc(N2C(=O)c3cc(C(=O)OC)nn3CC2(C)C(=O)NC2CCCCCC2)cc1 (stereo unspecified) | i
Cc1ccc(N2C(=O)c3ccccc3CC2(C)C(=O)NCc2ccccc2C)cc1 (stereo unspecified) | i
COc1ccccc1CNC(=O)c1ccc2c(=O)nc3c(-c4ccc(C)cc4)n[nH]n3c2c1 | i
Cc1ccc(NC(=O)Cn2nc3n(C)c(=O)c4ccc(C(=O)NC5CCCC5)cc4n3c2=O)c(C)c1 | i
CC[N+](CC)(CC)CC(=O)Nc1c(C)cccc1C | i
COc1cccc(Cn2nc3n(Cc4ccccc4)c(=O)c4ccc(C(=O)NC(C)C)cc4n3c2=O)c1 | i
CCn1cnnc1CC1CCN(C(=O)c2nccc3ccccc23)C1 (stereo unspecified) | i
CC(C)=CCCC1(C)Oc2cc3c(c4c2C2C(O4)C(C)(O)CCC21)CN(C(CCC(=O)O)C(=O)O)C3=O (stereo unspecified) | i
O=C(CCc1ccccc1)N1CCC(Cc2nncn2-c2ccccc2)C1 (stereo unspecified) | i
CCC(C(=O)N1CCC2(CC1)C(=O)N(CC(=O)NCC(C)C)CN2c1ccccc1)c1ccccc1 (stereo unspecified) | i
CC1CCC(NC(=O)Cn2c(=O)oc3cc(S(=O)(=O)NCc4ccccc4)ccc32)CC1 (stereo unspecified) | i
CC1(C(=O)NC2CCCCC2)Cn2c(nc3ccccc32)C(=O)N1Cc1ccccc1Cl (stereo unspecified) | i
CC1(C)[C@H](Cc2cc(COc3ccccc3)on2)C[C@@H]1NC1CCC1 | i
CCN(CC)CCCNS(=O)(=O)c1ccc2[nH]c(=O)[nH]c2c1 | i
O=C(CCc1nnc2n(CCc3ccccc3)c(=O)c3ccccc3n12)N1CC=C(c2ccccc2)CC1 | i
COc1ccc(C2CC(=O)c3cc(-c4nc(-c5cccc([N+](=O)[O-])c5)cs4)c(=O)n(-c4ccccc4N)c3C2)cc1 (stereo unspecified) | +
O=C(NCc1ccc(Cl)cc1)c1ccc2c(=O)[nH]c3c(C(=O)NC4CCCC4)sc(=S)n3c2c1 | +
COc1c2c(c(C)c3c1C(=O)OC3)OC1(C)CC(O)C34OC(O)(CCC3(C)C1C2)OC4(C)C (stereo unspecified) | i
COc1cc(C(=O)OCC2=CCC3C(C(=O)O)=COC(O[C@@H]4O[C@H](CO)[C@@H](O)[C@H](O)[C@H]4O)C23)ccc1O (stereo partly specified) | i
O=C(Nc1ccc(Cl)cc1)N1Cc2c(sc3c2CCCC3)-n2cccc2C1c1cccc(F)c1 (stereo unspecified) | i
CCCn1c(=O)c2ccccc2n2c(SCC(=O)Nc3ccc(C)cc3Cl)nnc12 | i
COCCCN1CCC(CNc2nccc(-c3cnn(C)c3)n2)C1 (stereo unspecified) | i
COc1ccc(C(=O)CSc2nnc3n(C)c(=O)c4ccc(C(=O)NC5CCCC5)cc4n23)cc1 | i
CC(C)OCCCNc1nc2c(S(=O)(=O)c3ccc(C(C)C)cc3)nnn2c2ccccc12 | i
Cc1ccc(CN2C(=O)c3cc4oc(C)cc4n3CC2(C)C(=O)NC2CCCCC2)cc1 (stereo unspecified) | i
CCN(Cc1ccccc1)C(=O)CN(C)S(=O)(=O)c1ccc2[nH]c3c(c2c1)CCCC3 | i
Cn1cc(-c2ccc3nnc(Sc4ccc5nn(C)cc5c4)n3n2)cn1 | i
Cc1cccc(N2CCN(C(=O)CCc3nnc4n(Cc5ccccc5)c(=O)c5ccccc5n34)CC2)c1C | i
C(=C\c1ccccc1)/CN1CCN(c2nccc(-c3cccnc3)n2)CC1 | i
CCCn1c(=O)c2ccc(C(=O)NC3CCCC3)cc2n2c(=O)n(CC(=O)Nc3cc(C)cc(C)c3)nc12 | i
CC(C)Cn1c(=O)c2ccc(Cl)cc2n2c(SCC(=O)Nc3cccc(Cl)c3)nnc12 | i
Cc1cc(C(=O)NC2CCCC2)c2c(C3CCNC3)noc2n1 (stereo unspecified) | i
CC(O)/C=C/C1C(C)C(O[C@@H]2O[C@H](CO)[C@@H](O)[C@H](O)[C@H]2O)C(O)CC1(C)C (stereo partly specified) | i
COC(=O)c1ncn2c1C(=O)N(c1ccc(C)c(C)c1)C(C)(C(=O)NC1CCCC1)C2 (stereo unspecified) | i
COc1ccc(CNC(=O)C2(C)Cn3cnc(C(=O)NCc4cccc(F)c4)c3C(=O)N2C2CC2)cc1 (stereo unspecified) | i
Cc1noc(C)c1S(=O)(=O)N1CCC2(CC1)CC1C(=O)NCCN1C2 (stereo unspecified) | i
COc1ccc(-c2cc3n(n2)CC(C)(C(=O)NCc2ccccc2)N(c2cc(Cl)ccc2C)C3=O)cc1 (stereo unspecified) | i
CCn1cc(CN2CC[C@H](CNC(=O)COC)[C@H](N(C)C)C2)c(C)n1 | i
CC(C)c1ccc(CN2CCCC3(CCN(S(C)(=O)=O)C3)C2=O)cc1 (stereo unspecified) | i
C=Cc1ccc(Cn2nc3n(Cc4ccccc4)c(=O)c4ccc(C(=O)NC5CCCC5)cc4n3c2=O)cc1 | i
Cc1cccc(CCNC(=O)Cn2c(=O)oc3cc(S(=O)(=O)N4CCCC4)ccc32)c1 | i
Cc1cccc(CNC(=O)C2CC(c3ccc(F)c(C)c3)CN(C(=O)c3ccccc3)C2)c1 (stereo unspecified) | i
CCc1ccc(CNC(=O)c2cc3n(n2)CC(C)(C(=O)NC2CCCC2)N(CC)C3=O)cc1 (stereo unspecified) | i
CO[C@@H]1[C@]2(O)C(=O)N3/C=C\C(C)(C)c4[nH]c5ccccc5c4/C=C\3C(=O)N2[C@]23[C@H](CO)C(C)(C)N2c2ccccc2[C@]13O | i
CCc1cc2c(cc3n2CC(C)(C(=O)NC2CCCCC2)N(Cc2ccccc2)C3=O)s1 (stereo unspecified) | i
CN1CCC(OC2CCN(C(=O)c3cccc(F)c3)CC2)CC1 | i
COC1=CC(=O)C=C(C)C12Oc1c(Cl)c(OC)cc(OC)c1C2=O (stereo unspecified) | i
CC(C)c1nc(-c2ccc(C(=O)N[C@@H]3COCC[C@@H]3OCC3CC3)cc2)no1 | i
COC(=O)c1cc2n(n1)CC(C)(C(=O)NC1CCCCC1)N(CCc1ccc(SC)cc1)C2=O (stereo unspecified) | i
CN1C(=O)c2cc(C(=O)NCc3cccc(Cl)c3)nn2CC1(C)C(=O)NC1CCCCCC1 (stereo unspecified) | i
COC(=O)[C@H](NC(=O)[C@@H]1C[C@@H](NC(=O)CSC)CCN1S(=O)(=O)c1ccc(OC)cc1)C(C)C | i
Cc1cc(N2C(=O)c3cc4ccccc4n3CC2(C)C(=O)NC2CCCC2)ccc1Br (stereo unspecified) | i
CC1CC(C)CN(S(=O)(=O)c2ccc3c(c2)oc(=O)n3CC(=O)NCc2ccccn2)C1 (stereo unspecified) | i
CCCC(=O)C1CCN(c2ncnc3c2CN(C(=O)c2ccc(-c4ccccc4)cc2)CC3)CC1 | u
CN(CC1CCOC1)S(=O)(=O)c1cccs1 (stereo unspecified) | i
C=C1CCC2[C@](C)(CO)C(O)CC[C@]2(C)C1C/C=C1/C(=O)OCC1O (stereo partly specified) | u
CN(CC(=O)NCc1ccc(F)cc1)S(=O)(=O)c1ccc2[nH]c3c(c2c1)CCCC3 | i
COCCn1c2c(c(=O)n1-c1ccccc1)CCN(Cc1cccc(C#N)c1)C2 | i

Remaining list, next part
SMILES | Methyltransferases
CC(C)Nc1nc(Nc2ccccc2)nc(-c2ccccc2)n1 | i
COc1ccc(C(=O)CSc2nnc3n(CC(C)C)c(=O)c4ccc(C(=O)NC(C)C)cc4n23)cc1 | i
COC(=O)c1cc2n(n1)CC(C)(C(=O)NC1CCCCCC1)N(c1cc(C)ccc1C)C2=O (stereo unspecified) | i
Cc1cc2c(cc3n2CC(C)(C(=O)NC2CCCCCCC2)N(CCCN2CCCCC2)C3=O)o1 (stereo unspecified) | i

Sorted by SMILES length (high to low): 5 of the compounds above.
SMILES | Methyltransferases
COc1ccc(C(=O)CSc2nnc3n(CC(C)C)c(=O)c4ccc(C(=O)NC(C)C)cc4n23)cc1 | i
COC(=O)c1cc2n(n1)CC(C)(C(=O)NC1CCCCCC1)N(c1cc(C)ccc1C)C2=O (stereo unspecified) | i
CN(CC(=O)NCc1ccc(F)cc1)S(=O)(=O)c1ccc2[nH]c3c(c2c1)CCCC3 | i
CC(C)Nc1nc(Nc2ccccc2)nc(-c2ccccc2)n1 | i
CN(CC1CCOC1)S(=O)(=O)c1cccs1 (stereo unspecified) | i

Not all compounds are listed (hit frequency here may not be typical).
